Bioassay records deposited in PubChem BioAssay by National Center for Advancing Translational Sciences (NCATS).
TRPML1 ag – qHTS for Agonists of the Human Mucolipin Transient Receptor Potential 1 (TRPML1). activation, % (concentration not given with the values). TRPML1-expressing cells, Ca2+ dye fluorescence, FDSS; host cell line not named in the record; reference of the full effect not given here. AID 624414, 2012. actives 0.12% (n = 410,000); in the data active = activation above about 50%; inconclusive = about 30% to 50%; inactive = below about 30%; also: 0% is about no effect; the text of the record puts the active cut at 80%
Target sequence (Q9GZU1 whole entry, looked up): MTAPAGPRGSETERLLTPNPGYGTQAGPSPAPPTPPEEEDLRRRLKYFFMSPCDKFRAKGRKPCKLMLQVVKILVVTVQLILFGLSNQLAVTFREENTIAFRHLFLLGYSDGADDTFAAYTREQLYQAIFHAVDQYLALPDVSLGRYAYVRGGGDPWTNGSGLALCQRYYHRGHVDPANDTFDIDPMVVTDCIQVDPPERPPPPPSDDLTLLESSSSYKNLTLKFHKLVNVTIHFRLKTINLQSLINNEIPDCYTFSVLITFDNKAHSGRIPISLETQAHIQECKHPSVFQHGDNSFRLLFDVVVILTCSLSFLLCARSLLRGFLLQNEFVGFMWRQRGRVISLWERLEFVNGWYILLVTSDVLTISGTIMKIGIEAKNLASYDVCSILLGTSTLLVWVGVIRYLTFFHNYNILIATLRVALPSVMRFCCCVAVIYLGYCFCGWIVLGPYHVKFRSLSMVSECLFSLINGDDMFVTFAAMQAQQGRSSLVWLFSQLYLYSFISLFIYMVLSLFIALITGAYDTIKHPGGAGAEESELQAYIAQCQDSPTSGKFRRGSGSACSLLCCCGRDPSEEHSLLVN
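Tetracycline-induced TRPML1-DL cells are seeded and incubated overnight before loading with a no-wash Ca2+ dye and quencher. Agonist activity is taken from the 110 s fluorescence read following compound pin-transfer on an FDSS, before EC80 54-4 challenge.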
CtBP-E1A blk – qHTS Assay for Inhibitors of the CtBP/E1A Interaction; CtBP / adenovirus E1A interaction (AlphaScreen); AlphaScreen GST-E1A/His-CtBP binding, 1536-well; hits give low values; control for the full effect not named in the record; activity change, % (no concentration beside the values); actives 0.49% (n = 340,000); AID 651724, 2012; in the data active means activity change below about -65%; inconclusive means about -30% to -65%; inactive means above about -30%; also: % is scaled to controls: 0 for no effect and ±100 for the full control effect; compound concentration not given in the record
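Homogeneous bead-based format: GST-tagged E1A captured on glutathione donor beads, His-tagged CtBP on nickel acceptor beads; compounds precede bead addition by 2 h at 37 °C.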
D2 ag – Beta-Arrestin HTS for Positive Allosteric Modulators of the Human D2 Dopamine Receptor: Agonists. D(2) dopamine receptor (Homo sapiens), P14416. DiscoveRx PathHunter D2 beta-arrestin, luminescence, 90 min; 100% = 57 uM dopamine signal. AID 624465, 2012. activation, % (test concentration not listed). actives 0.084% (n = 360,000); in the data active = activation above about 40%; inconclusive = about 15% to 40%; inactive = below about 15%; also: compound concentration not given in the record; the text of the record calls up to 30% inactive
Target sequence (P14416 whole entry, looked up): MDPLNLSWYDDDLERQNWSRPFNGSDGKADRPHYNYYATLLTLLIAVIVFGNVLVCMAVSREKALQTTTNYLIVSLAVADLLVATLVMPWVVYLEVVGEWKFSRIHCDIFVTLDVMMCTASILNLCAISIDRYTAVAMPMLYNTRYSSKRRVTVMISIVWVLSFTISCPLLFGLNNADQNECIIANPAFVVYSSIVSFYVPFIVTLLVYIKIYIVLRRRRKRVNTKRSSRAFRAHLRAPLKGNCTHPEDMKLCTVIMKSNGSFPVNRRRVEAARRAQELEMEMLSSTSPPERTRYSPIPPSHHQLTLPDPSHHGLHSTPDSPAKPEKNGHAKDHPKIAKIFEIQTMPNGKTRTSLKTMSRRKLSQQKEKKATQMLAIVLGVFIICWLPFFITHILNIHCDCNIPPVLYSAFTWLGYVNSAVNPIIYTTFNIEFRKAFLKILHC
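Agonist mode: compounds alone added to overnight-plated D2 PathHunter cells for 90 min at 37 C, with 57 uM final dopamine (EC100) defining full response. Beta-arrestin recruitment detected by chemiluminescent reagent, read after 1 h at ambient temperature.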
PINK1 modulator – A Quantitative High throughput Screen to Identify Chemical Modulators of PINK1 Expression; PINK1 immunofluorescence, high-content cytometry, 24 h; actives 0.2% (n = 410,000); Potency, µM (highest dose often 76.6 µM), without a hit: top-dose activation (PINK1 increase), hits mostly activators; AID 624263, 2012; active = well fitted activation curve with a large enough effect; inconclusive = small, poorly fitted or top-dose-only effect; inactive = flat fitted curve, though single readings scatter; cell line not stated here;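 also: potency is read from the fitted curve at half-maximal effect; % of control where 0% means no effect; nearly all actives have a fitted effect of over 65% in size; a mitochondrial uncoupler was the plate control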
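Readout is PINK1 immunofluorescence, quantified alongside mitochondrial, cell and nuclear markers by laser-scanning microplate cytometry. Cells from a stable line were exposed to compound titrations (5 concentrations) for 24 hours, with CCCP controls.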
TRPML1 blocker – qHTS for Inhibitors of the Human Mucolipin Transient Receptor Potential 1 (TRPML1) | actives 0.02% (n = 390,000) | AID 624415, 2012 | Mucolipin-1 (Homo sapiens), Q9GZU1 | TRPML1-inducible cells, Ca2+ dye fluorescence, FDSS; hits give low values; inhibition of EC80 agonist-evoked calcium signal | activity change, negative = inhibition, % (concentration not given with the values); in the data active means activity change below about -50%; inconclusive means about -30% to -50%; inactive means above about -30%;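 also: stimulus is agonist 54-4 at its EC80 concentration; % is scaled to controls: 0 for no effect and ±100 for the full control effect; compound concentration not given in the record; the text of the record puts the active cut at -80%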
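Calcium fluorescence in TRPML1-DL cells induced overnight with Tet: a 110 s read after compound pin addition, then a 110 s antagonist read after challenge with 54-4 at 4 uM final (EC80).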
Six1-Eya2 blk – qHTS Assay for Inhibitors of the Six1/Eya2 Interaction; actives 0.56% (n = 360,000); activity change, % (no concentration beside the values); AlphaScreen GST-Six1/His-Eya2 binding, biochemical; hits give low values; control for the full effect not named in the record; in the data active = activity change below about -65%; inconclusive = about -30% to -65%; inactive = above about -30%; also: % is scaled to controls: 0 for no effect and ±100 for the full control effect; compound concentration not given in the record
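Homogeneous AlphaScreen proximity assay pairing GST-Six1 with His-tagged Eya2 (added as 5X mix: 250 nM and 500 nM) in 50 mM Tris pH 8.0, 300 mM NaCl, 1 mM TCEP. Glutathione donor and nickel acceptor beads; 1 h, 37 °C, dark.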
* = called active by the depositor; ? = inconclusive; / = no result given; [ ] = remark or other dose.

molecule	TRPML1 ag	CtBP-E1A blk	D2 ag	PINK1 modulator	TRPML1 blocker	Six1-Eya2 blk
CNc1ncnc2c1ncn2[C@H]1CN(Cc2cccnc2)C[C@@H](CO)O1	0.2	-1	-4.0	0.3%	0	-1
COc1ccc(S(=O)(=O)N2CCOCC2)c(Cl)c1Cl	0.4	11	2.3	/	2	6
COc1ccc(OC)c(NCc2cccn2-c2nnc(N3CCC(C)CC3)s2)c1	2.6	/	/	13%	-16	/
Cc1cnc(=O)[nH]c1SCC(=O)Nc1nc2ccccc2s1	-0.5	/	/	1.9%	12	/
Cc1ccc(CSc2nc(-c3ccccc3C)nc3c2Cc2c(CO)cnc(C)c2O3)cc1	0.2	/	/	4.5%	-5	/
O=C(COc1ccccc1F)OCc1cc(=O)n2nc(C3CC3)sc2n1	0.9	/	/	-0.9%	-17	/
CN1c2ccccc2C(=O)/C(=C\Nc2ncccn2)S1(=O)=O	1.2	4	-3.1	-1.2%	9	4
CCCNC(=O)C1(C)CCCN(Cc2noc(-c3c(C)noc3C)n2)C1 (centres undefined)	-0.2	29	1.8	2.1%	-6	22
Cc1ccc2c(c1)nnn2C1CCN(CC(=O)N(c2ccccc2)c2ccccc2)CC1	0.3	/	-2.7	-1.0%	-1	-14
COc1cc(C)nc(N2CCCC(C(=O)NC3CCC(C)CC3)C2)n1 (centres undefined)	-0.6	6	-1.5	1.0%[38.3 µM]	-7	4
COc1ccc(C(=O)C2CCCN(C(=O)c3ccoc3C)C2)cc1F (centres undefined)	0.9	-5	-0.3	-1.4%	-20	6
CCCOC1CCCN(C(=O)c2ccc(OC3CCN(Cc4ccccn4)CC3)cc2)C1 (centres undefined)	0.0	3	-1.8	3.4%	9	4
O=C(Cc1ccc(Cl)cc1)NNC(=O)Nc1cccc2ccccc12	0.3	1	-0.7	19%	-12	8
COc1ccc(Cl)cc1S(=O)(=O)N1CCC(C(=O)NCCc2ccccc2)CC1	0.1	2	0.8	1.8%	4	-3
COc1ccc(Nc2ncnc3c2c(C)c(C)n3CCCN(C)C)cc1	0.7	-7	-3.4	3.1%	10	-17
CCN(CC(=O)NCCc1ccc(F)cc1)Cc1nc2ccccc2c(=O)[nH]1	0.2	/	-3.8	-1.6%	45	7
Cc1cc(C)n(CC(=O)NC2CCCc3c2cnn3-c2ccccc2F)n1 (centres undefined)	-1.0	18	3.5	-1.6%	-23	16
COc1ccc(-c2nc(CCl)cs2)cc1OC	-0.2	-1	-2.2	-2.2%	-12	1
Cc1ccc(CNC(=O)CCc2nnc3ccc(N4CCC5(CC4)OCCO5)nn23)cc1	0.0	/	-2.2	1.7%	6	1
CC(C(=O)OCC(=O)Nc1ccc(S(=O)(=O)N2CCCCC2)cc1)N1C(=O)c2ccccc2C1=O (centres undefined)	-0.2	-2	-2.8	1.1%	7	-2
Cc1ccc(C2=NN(CC(=O)NC(C)c3ccccc3)C(=O)CC2)cc1 (centres undefined)	0.5	/	/	0.1%	-28	/
CCc1ccc(N(CC)C(=O)c2ccc3c(Cl)c4c(nc3c2)CCC4)cc1	0.8	-24	-6.4	-1.5%	-3	-9
CCOC(=O)CNC(=O)CSc1nnc(-c2c[nH]c3ccccc23)n1CC	-0.7	/	-4.3	-0.1%	-14	4
CC(C)NC(=S)N(CCc1ccncc1)C(C)C	0.4	0	-4.7	1.7%	-8	7
COc1ccc(C(=O)CSc2nnc(CN3CCCC3)n2-c2ccc(F)cc2)c(OC)c1	0.5	-1	-1.3	2.2%	1	1
COc1ccc(C(=O)NC2CCN(CC(=O)NCc3cccc(OC)c3)CC2)cc1	0.6	0	-1.2	-3.1%	5	-1
Cc1cc(C)c2[nH]c(=O)c(CN(Cc3ccco3)C(=S)NCC3CCCO3)cc2c1 (centres undefined)	0.1	-11	-7.8	1.5%	3	-1
O=C(c1ccc2nc(N3CCOCC3)sc2c1)N1CCN(c2ccc(Cl)cc2)CC1	-0.6	3	-3.7	1.2%	-3	0
O=C(Nc1ccc2nc(-c3ccccn3)[nH]c2c1)C1CCCCC1	1.0	?	-3.5	3.4%	-3	?
COC(=O)C1=C(C(=O)OC)[C@@H]2N(Cc3ccccc3)c3ccccc3[C@@]23C[C@@H](C(=O)OC)N(C(=O)c2cc(C)oc2C)C3=N1	-0.4	-23	-2.9	1.7%	24	-13
CCOC(=O)C1=CN2CCC[C@H]2CC1=O	-0.4	-1	-0.8	2.2%	-20	0
CCOc1ccc2c(c1)OC1(CCC(C)C1)CC2=O (centres undefined)	-0.2	6	0.7	7.0%	39	8
COc1ccc(CCNC(=O)C2CCCN2C(=O)Nc2cccc(OC)c2)cc1 (centres undefined)	-0.4	4	-0.7	1.0%	-7	-1
CCCn1c(=O)c2sccc2n2c(CCCC(=O)NCc3ccco3)nnc12	-0.9	-3	-4.1	-1.3%	13	-15
Cc1nnnn1/C(=C\c1ccccc1)C(=O)OCC(=O)NC(C)(C)C	-0.2	8	-2.1	4.1%	-15	1
CC(=O)C1=C(O)C(=O)N(Cc2ccccc2)C1c1ccc(Br)cc1 (centres undefined)	-0.1	8	3.0	4.2%	-12	14
C=CCc1cc(C)ccc1OCCOCCN1CCN(C)CC1	/	/	1.1	0.4%	/	4
c1ccc(CCn2nnnc2C(c2cccs2)N2CCN(Cc3ccc4c(c3)OCO4)CC2)cc1 (centres undefined)	0.4	-15	-3.6	-0.2%	60	-21
Cc1ccc(SC2=C[C@@]3(O)CC[C@@H](O)[C@@](Sc4ccc(C)cc4)(C2=O)[C@H]3O)cc1	-0.1	-8	/	-0.3%	/	6
COc1ccc(CCNC(=O)C(=O)NCC2OCCN2S(=O)(=O)c2cc(F)ccc2F)cc1OC (centres undefined)	-0.1	7	0.7	1.0%	-14	-3
CC(=O)Nc1ccc(S(=O)(=O)N2CCCCC2c2cccnc2)cc1 (centres undefined)	-0.5	2	-0.4	19%[38.3 µM]	3	0
C=CCn1c(NCCO)nc2c1c(=O)n(C)c(=O)n2C	2.6	15	0.6	0.8%[38.3 µM]	14	-2
O=C(CC(=O)Nc1ccccc1)Nc1ccccc1	0.4	-1	-3.7	1.4%	24	12
Cc1ccc(-c2csc(NC(=O)CSc3nnc4c(n3)[nH]c3ccccc34)n2)cc1	1.5	-3	1.2	0.5%	12	-4
CC(C)(C)c1ccc(NNC(=O)C2CCC2)cc1	-0.5	8	-8.8	-1.1%	15	3
COc1cccc(CNC(=O)CCn2ccc3cc(S(=O)(=O)N4CCC(C)CC4)ccc32)c1	-0.7	0	-1.0	1.8%	13	-1
Cc1ccc(NS(=O)(=O)c2ccc(N3CCN(c4ccc(O)cc4)CC3)c([N+](=O)[O-])c2)c(C)c1	1.6	-2	-4.7	?	-4	?
O=C1CCn2c1c(O)c1ccccc1c2=O	1.8	-2	-0.6	-4.6%	-5	23
Cc1cc(NC(=O)CCC(=O)N(c2cccnc2)C(C(=O)NC2CCCC2)c2ccccc2F)no1 (centres undefined)	1.5	4	-2.6	-1.5%	0	1
Cc1ccc(NC(=O)N2CCC(NC(=O)c3ccco3)CC2)cc1	0.7	-2	-0.2	2.6%	10	-6

The listing continues:
molecule	TRPML1 ag	CtBP-E1A blk	D2 ag	PINK1 modulator	TRPML1 blocker	Six1-Eya2 blk
O=C(Cc1ccc(Br)cc1)N1CCN(c2ccc(F)cc2)CC1	-0.7	1	-1.4	4.5%	-4	-6
COCCN(CCOC)Cc1cc(=O)oc2cc(C)c(C)cc12	0.2	8	-2.8	0.8%	23	3
CCOc1cc2[nH]c(=O)n(Cc3ccc(C(=O)N4CCN(c5cccc(Cl)c5)CC4)cc3)c(=O)c2cc1OCC	0.0	/	/	-0.2%	-3	/
Fc1ccc(-c2cc(-c3nnc4n3CCCCC4)c3ccccc3n2)cc1	2.1	2	-4.1	-1.7%	-26	0
CCCOc1ccc(C(=O)NCCN2CCOCC2)cc1	0.7	4	-2.0	-0.6%	0	-12
CCN1C(=O)/C(=C/c2cccs2)S/C1=N\S(=O)(=O)c1ccc(C)cc1	-0.2	-8	-2.4	16%	6	-1
CCN1CCN(c2cc(C)c3cc(NC(=S)NCCCOC)ccc3n2)CC1	0.5	/	-5.3	4.8%	3	-7
COc1cccc(CN2CCNC(=O)C2CC(=O)NCc2cn3ccccc3n2)c1OC (centres undefined)	-0.3	9	-1.8	0.2%	6	-15
CC(=O)Nc1nnc(SCC(=O)NC(C)(C)C)s1	0.2	14	-3.4	/	-19	-1
Cc1ccccc1OCC(=O)NNC(=O)c1ccc2c(=O)n3c(nc2c1)CCC3	-0.9	-17	0.5	0.2%	-10	-27

Profiles, looked up by structure. Screens in order: TRPML1 ag | CtBP-E1A blk | D2 ag | PINK1 modulator | TRPML1 blocker | Six1-Eya2 blk
Profile of `COc1cccc(CN2CCNC(=O)C2CC(=O)NCc2cn3ccccc3n2)c1OC` (centres undefined) = -0.3 | 9 | -1.8 | 0.2% | 6 | -15
Profile of `CC(=O)Nc1nnc(SCC(=O)NC(C)(C)C)s1` = 0.2 | 14 | -3.4 | / | -19 | -1
Profile of `CCN1CCN(c2cc(C)c3cc(NC(=S)NCCCOC)ccc3n2)CC1` = 0.5 | / | -5.3 | 4.8% | 3 | -7

Next part:
molecule	TRPML1 ag	CtBP-E1A blk	D2 ag	PINK1 modulator	TRPML1 blocker	Six1-Eya2 blk
CCn1c(CNC(=O)c2ccco2)nnc1SCC(=O)Nc1cc(F)ccc1C	0.1	4	6.3	1.1%	2	5
O=C(c1ccc(Sc2ccc(F)cc2)c([N+](=O)[O-])c1)N1CCOCC1	-0.3	?	2.7	1.9%	-1	-6
Cc1ccc(OCc2cc(C(=O)N3CCN(c4ccccc4)CC3)no2)cc1C	0.4	-1	-2.5	1.2%	3	-8
Clc1ccc(CNc2cc(-c3ccccc3)nc3nncn23)cc1	0.8	/	/	4.9%	47	/
CC(C)CC(NC(N)=O)C(=O)NCc1ccccc1Cl (centres undefined)	0.0	-1	1.2	0.8%	30	1
CCCCNC(=O)CNC(=O)c1nn(-c2ccc(OC)cc2)c(=O)c2ccccc12	/	-4	2.3	-0.3%	/	1
O=C(Nc1nc2cc3c(cc2s1)OCCO3)c1ccc([N+](=O)[O-])o1	-0.9	1	0.8	-1.2%	-4	1
Cc1ccc2c(c1)N(CCCC(=O)NCCCN1CCCCC1)C(=O)CO2	-0.2	2	-1.7	1.4%	7	4
O=C(Nc1ccccc1C(=O)N1CCCCC1)c1ccc(Cl)cc1Cl	-0.6	-15	0.0	3.4%	1	0
